MLL AF4-AF9 inh – MLL-AF4/AF9 protein interaction inhibition; AID 651704; P42568; inhibition, % at 10 µM; AlphaScreen, biotin-AF4 peptide binding to FLAG-AF9; 0.47% of 350,000 active;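 active means every replicate reaching a set inhibition limit, whatever the replicate mean, cut at about 25% in these data; inconclusive means mean inhibition reaches that limit but some replicates miss it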;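 further: 0% = plate neutral control median and 100% = total signal loss; the record names both 10 and 1 µM as test concentration; the first replicate is given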
Target sequence (P42568 whole entry, looked up): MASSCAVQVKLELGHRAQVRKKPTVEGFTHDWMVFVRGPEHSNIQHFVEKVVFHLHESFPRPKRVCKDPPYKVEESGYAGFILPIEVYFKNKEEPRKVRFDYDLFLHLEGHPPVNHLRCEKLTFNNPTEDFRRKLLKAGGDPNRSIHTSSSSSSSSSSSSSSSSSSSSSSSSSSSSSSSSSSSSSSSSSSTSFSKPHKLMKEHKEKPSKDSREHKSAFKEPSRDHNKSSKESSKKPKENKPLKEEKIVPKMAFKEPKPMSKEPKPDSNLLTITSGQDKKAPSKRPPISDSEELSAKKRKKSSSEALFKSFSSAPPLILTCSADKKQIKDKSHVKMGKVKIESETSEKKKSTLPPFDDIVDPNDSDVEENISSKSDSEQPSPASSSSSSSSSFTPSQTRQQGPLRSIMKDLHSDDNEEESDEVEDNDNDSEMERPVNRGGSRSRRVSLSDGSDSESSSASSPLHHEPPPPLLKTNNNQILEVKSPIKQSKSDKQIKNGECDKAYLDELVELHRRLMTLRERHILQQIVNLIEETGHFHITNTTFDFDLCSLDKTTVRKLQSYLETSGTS
* = called active by the depositor; u = inconclusive; & = joins results of further samples.

SMILES | MLL AF4-AF9 inh
COc1ccc(NC(=O)N(C)C[C@H]2Oc3ccc(NS(=O)(=O)c4ccc(OC)cc4)cc3C(=O)N([C@@H](C)CO)C[C@H]2C)cc1 | 1.6
Cc1noc(C)c1NC(=O)N(C)C[C@H]1Oc2ccc(NC(=O)c3ccncc3)cc2C(=O)N([C@@H](C)CO)C[C@@H]1C | -2.1
C[C@@H]1CCCCO[C@@H](CN(C)S(=O)(=O)c2cn(C)cn2)[C@H](C)CN([C@@H](C)CO)C(=O)c2cc(NS(C)(=O)=O)ccc2O1 | -0.1
CNC[C@@H]1Oc2ccc(NC(=O)C3CC3)cc2CC(=O)N([C@@H](C)CO)C[C@H]1C | -5.3
O=C(C[C@@H]1CC[C@@H]2[C@H](COC[C@H](O)CN2C(=O)Nc2ccc(F)cc2)O1)NC1Cc2ccccc2C1 | -0.8
CC(C)CC(N)c1csc(NC(=O)Nc2ccccc2C(C)C)n1 (stereo not given) | 10
COc1ccc(S(=O)(=O)N(C)C[C@H]2OCCCC[C@H](C)Oc3ccc(NS(=O)(=O)c4c(C)noc4C)cc3C(=O)N([C@@H](C)CO)C[C@H]2C)cc1 | -1.2
C[C@@H]1CN([C@H](C)CO)C(=O)c2cc(NC(=O)C3CCCCC3)ccc2O[C@H]1CN(C)Cc1ccc(C(F)(F)F)cc1 | -0.1
CNc1cnc(-c2ccccc2OC)cn1 | 0.9
CO[C@H]1CN(C)C(=O)c2ccc(NC(=O)c3ccccc3)cc2OC[C@H](C)NC[C@H]1C | -2.6
COc1ccc(S(=O)(=O)N(C)C[C@H]2OCCCC[C@H](C)Oc3ccc(NC(=O)NC(C)C)cc3C(=O)N([C@@H](C)CO)C[C@H]2C)cc1 | 2.2
C[C@@H]1CN([C@H](C)CO)C(=O)c2cc(NC(=O)Cc3cn(C)c4ccccc34)ccc2O[C@@H]1CN(C)C(=O)Nc1ccccc1 | 2.5
C[C@H]1O[C@H](C2CCCC2)CC2=C1C(=O)OC(C)(C)O2 | -0.4
O=C1NC[C@@H](CCCCN2C[C@H](Cc3ccc(O)cc3)N(CC3CCCCC3)C(=O)C2=O)N(CCC2CCCCC2)C1=O | -2.7
C[C@H]1CN([C@@H](C)CO)C(=O)c2cccc(NC(=O)c3ccc(-c4nccs4)cc3)c2O[C@@H]1CN(C)S(=O)(=O)c1cccs1 | -2.2
CCOC(=O)C1=C(C(=O)OCC)C2N(Cc3ccc(C(F)(F)F)cc3)c3ccccc3[C@@]23C[C@@H](C(=O)OC)N(S(=O)(=O)c2cccs2)C3=N1 (stereo not given in full) | -1.4
COc1ccccc1NC(=O)N1C[C@H](O)COC[C@@H]2O[C@H](CC(=O)NCCc3ccccc3)CC[C@H]21 | -12
Cc1noc(C)c1S(=O)(=O)Nc1ccc2c(c1)C(=O)N([C@H](C)CO)C[C@H](C)[C@@H](CN(C)Cc1ccccc1)OCCCC[C@@H](C)O2 | -1.2
CO[C@@H]1CN(C)C(=O)c2cc(NC(=O)Nc3ccccc3)ccc2OC[C@H](C)N(CC2CC2)C[C@H]1C | 1.0
CCCS(=O)(=O)NC(=O)C1(C)CCN(C(=O)Cc2cccc(OC)c2)C1 (stereo not given) | -0.3
NC(=O)[C@H]1[C@@H]2C(=O)O[C@@H](c3ccccc3)[C@@H](c3ccccc3)N2[C@@H](c2ccc(OCCO)cc2)[C@]12C(=O)Nc1ccc(C#CC3(O)CCCCCC3)cc12 | 0.4
C/C=C/c1ccccc1[C@H]1[C@@H](C#N)N(c2ncc(CC)s2)[C@@H]1CO | 3.0
Cc1noc(C)c1NC(=O)N(C)C[C@H]1OCCCC[C@@H](C)Oc2ccc(NC(=O)c3ccccc3)cc2C(=O)N([C@H](C)CO)C[C@@H]1C | 1.0&-1.5
O=C(NCCc1c[nH]c2ccccc12)OC1CC2CC1[C@H]1CCCCN1C2=O (stereo not given in full) | 2.7
CCNC(=O)C1(C)CCCN1C(=O)c1cc(C)on1 (stereo not given) | -0.2
COc1ccccc1NC(=O)N[C@H]1CC[C@@H](CC(=O)NCc2ccc(Cl)c(Cl)c2)O[C@H]1CO | 3.5
CC(C)[C@H](NC(=O)c1ccc(Br)cc1)C(=O)NC1CCCCC1 | -0.1
O=C(C[C@H]1CC[C@H]2[C@@H](COC[C@@H](O)CN2S(=O)(=O)c2ccccc2)O1)Nc1ccc(-c2ccccc2)cc1 | -4.0
COc1ccc(NC(=O)Nc2ccc3c(c2)[C@H]2C[C@H](CC(=O)NCc4ccc5c(c4)OCO5)O[C@H](CO)[C@H]2O3)cc1 | 1.6
C[C@H](CO)N1C[C@H](C)[C@@H](CN(C)C(=O)Nc2ccccc2)Oc2cc(C#CC3(O)CCCC3)ccc2S1(=O)=O | -6.3
O=C(NNC(=O)c1csc(-c2cccs2)n1)c1ccc(Cl)cc1 | -0.9
COc1ccccc1NC(=O)N(C)C[C@@H]1Oc2ncc(C#CCN(C)C)cc2C(=O)N([C@@H](C)CO)C[C@@H]1C | -15
C[C@H](CO)N1C[C@H](C)[C@@H](CN(C)CC2CCOCC2)Oc2ncc(C#Cc3ccccc3)cc2C1=O | 9.7
CC(=O)N(C)C[C@H]1Oc2cc(C#Cc3ccccn3)ccc2S(=O)(=O)N([C@@H](C)CO)C[C@@H]1C | -1.3
N#Cc1ccccc1OCC(=O)NC1CCCCCC1 | -0.5
CO[C@@H](CN(C)C(=O)C1CCOCC1)[C@H](C)CN([C@H](C)CO)S(=O)(=O)c1ccccc1 | -1.5
C[C@H]1CN([C@@H](C)CO)C(=O)Cc2cc(NC(=O)c3ccncc3)ccc2O[C@H]1CN(C)C(=O)Nc1ccc(F)cc1 | -2.8
O=C(Nc1cccc(F)c1)N1CCCCN2[C@H](CO)[C@H](c3ccc(-c4ccccc4F)cc3)[C@@H]2C1 | -5.5
COc1ccc(-c2ccc3c(c2)O[C@@H](CN(C)CC2CCOCC2)[C@@H](C)CN([C@H](C)CO)S3(=O)=O)cc1 | 6.8
CN1C(=O)c2cc(NS(=O)(=O)c3ccc(F)cc3)ccc2OC[C@@H]2O[C@H](CC(=O)O)CC[C@H]21 | -1.2
CCCN(C)C[C@H]1Oc2cc(C#CC(C)(C)O)ccc2S(=O)(=O)N([C@H](C)CO)C[C@H]1C | 2.4
O=S(=O)(c1ccc(F)cc1)N1CC[C@@H]2[C@H](CO)Nc3ccc(C#CC4CCCCC4)cc3[C@@H]21 | -2.6
C[C@H](c1ccccc1)N1C[C@H](COCc2ccccc2)Oc2cc(N3CC[C@@H](N(C)C)C3)ccc2S1(=O)=O | 3.8
C/C=C/c1ccc([C@@H]2[C@H](CO)N(C(=O)CC)C23CN(S(=O)(=O)CC)C3)cc1 | -1.0
CCC(=O)N(C)C[C@@H]1Oc2ncc(/C=C/c3ccccc3)cc2C(=O)N([C@H](C)CO)C[C@@H]1C | -0.7
COCC(=O)Nc1ccc2c(c1)[C@H]1C[C@H](CC(=O)N[C@@H](C)c3ccccc3)O[C@H](CO)[C@H]1O2 | 2.6
C[C@@H]1CCCCO[C@H](CN(C)C(=O)Cc2ccccc2)[C@H](C)CN([C@H](C)CO)C(=O)c2cc(NC(=O)c3ccccc3)ccc2O1 | 1.6
C[C@H](CO)N1C[C@H](C)[C@@H](CN(C)S(=O)(=O)c2cn(C)cn2)OCCCC[C@H](C)Oc2ccc(NC(=O)CCC(F)(F)F)cc2C1=O | -4.1

Grouped by structure, the compounds so far containing a Cl atom.
SMILES | MLL AF4-AF9 inh
COc1ccccc1NC(=O)N[C@H]1CC[C@@H](CC(=O)NCc2ccc(Cl)c(Cl)c2)O[C@H]1CO | 3.5
O=C(NNC(=O)c1csc(-c2cccs2)n1)c1ccc(Cl)cc1 | -0.9

Later entries
SMILES | MLL AF4-AF9 inh
C[C@@H](NC(=O)C[C@@H]1CC[C@@H](NC(=O)CN2CCOCC2)[C@@H](CO)O1)c1ccccc1 | 0.7
CC(C)NC(=O)Nc1ccc2c(c1)C(=O)N([C@H](C)CO)C[C@H](C)[C@H](CN(C)C(=O)Nc1ccccc1)OCCCC[C@@H](C)O2 | -2.9
CCC(=O)N(C)C[C@@H]1Oc2ncc(C#CCC3CCCC3)cc2C(=O)N([C@@H](C)CO)C[C@H]1C | 2.8
CC(C)CNC(=O)[C@@]1(C)c2ccccc2C(=O)N(Cc2ccccc2)[C@H]1c1ccc(CO)cc1 | -2.8
C[C@H](CO)N1C[C@H](C)[C@@H](CN(C)C(=O)Cc2ccccc2)Oc2ncc(C#CC3(O)CCCC3)cc2C1=O | -1.9
COc1ccc(S(=O)(=O)N2C[C@H](O)COC[C@@H]3O[C@H](CC(=O)N[C@@H]4CCN(Cc5ccccc5)C4)CC[C@H]32)cc1 | 1.1
Cc1ccccc1-c1ccc([C@@H]2[C@H](CO)N3CCCCN(C(=O)CN4CCOCC4)C[C@@H]23)cc1 | 1.4
O=S(=O)(Cc1ccccc1)N1CCCCN2[C@@H](CO)[C@@H](c3ccc(C#Cc4ccccc4)cc3)[C@@H]2C1 | 0.1
COc1cccc(COC(=O)Nc2ccccc2)c1OC | -2.2
C[C@@H]1CCCCO[C@H](CN(C)C(=O)CCCN(C)C)[C@H](C)CN([C@@H](C)CO)C(=O)c2cc(NS(=O)(=O)c3ccc(F)cc3)ccc2O1 | 4.6
CCCC#Cc1ccc([C@H]2[C@@H](CO)N3CCCCN(CC4CCOCC4)C[C@H]23)cc1 | 6.1
COCCNC(=O)C[C@@H]1CC[C@@H]2[C@@H](COc3ccc(NC(=O)Cc4ccccc4)cc3C(=O)N2C)O1 | -3.6
COCC(=O)N(C)C[C@@H]1[C@@H](c2ccccc2)[C@H](CO)N1C(=O)NC(C)C | -0.4
CNC[C@@H]1Oc2ccc(NC(=O)NC(C)C)cc2C(=O)N([C@H](C)CO)C[C@@H]1C | 2.7
COc1cccc(NC(=O)N2C[C@H](O)COC[C@@H]3O[C@@H](CC(=O)NC4CCCC4)CC[C@H]32)c1 | -3.9
CCC(=O)N1[C@H](CO)[C@H](c2ccc(-c3ccc(F)cc3)cc2)C12CN(C(C)=O)C2 | 2.0
COc1ccc(NC(=O)Nc2ccc3c(c2)CC(=O)N([C@@H](C)CO)C[C@H](C)[C@@H](CN(C)Cc2ccc(C(=O)O)cc2)O3)cc1 | -2.0
O=C(C[C@H]1CC[C@H]2[C@@H](COC[C@@H](O)CN2Cc2cc(F)ccc2F)O1)NCc1ccc(Oc2ccccc2)cc1 | 3.0
COC(=O)[C@H](C)N(Cc1ccc(Cl)c(Cl)c1)S(=O)(=O)CCN1CCN(c2ccccc2)CC1 | 1.9
CCOC1=C2CN(S(=O)(=O)c3ccc(C)cc3)[C@@H](c3cccs3)C[C@H]2[C@H]2C(=O)N(c3ccccc3)C(=O)[C@H]2C1 | u
C[C@@H]1CN([C@H](C)CO)S(=O)(=O)c2ccc(C#CC3CC3)cc2O[C@H]1CN(C)C(=O)C1CCC1 | -0.5
COc1ccc(S(=O)(=O)Nc2cccc3c2O[C@@H](CN(C)S(=O)(=O)c2ccc(OC)cc2)[C@@H](C)CN([C@@H](C)CO)C3=O)cc1 | 2.0
C[C@@H]1CN([C@H](C)CO)C(=O)Cc2cc(NC(=O)CCCCCC(=O)Nc3ccccc3N)ccc2O[C@@H]1CN(C)C | 1.5
C[C@H](O)C#Cc1ccc2c(c1)O[C@H](CN(C)C(=O)C1CCC1)[C@@H](C)CN([C@@H](C)CO)S2(=O)=O | -1.8
C[C@@H]1CN([C@@H](C)CO)C(=O)c2cc(NC(=O)Cn3cnnn3)ccc2O[C@@H]1CN(C)Cc1ccncc1 | -1.3
Cn1cc([C@]2(O)C(=O)Nc3c(F)cccc32)c2ccccc21 | 1.7
CO[C@@H]1CN(C)C(=O)c2ccc(NS(=O)(=O)c3cccc(Cl)c3)cc2OC[C@@H](C)NC[C@H]1C | -1.2
C=CCNC(=O)[C@H]1[C@@H]2C(=O)O[C@@H](c3ccccc3)[C@@H](c3ccccc3)N2[C@@H](c2ccc(OCCO)cc2)[C@]12C(=O)Nc1ccc(C#CCC(C(=O)OC)C(=O)OC)cc12 | -2.0
C[C@@H]1CN([C@H](C)CO)C(=O)c2cccc(NC(=O)C3CC3)c2O[C@H]1CN(C)Cc1ccc(C(=O)Nc2ccccc2N)cc1 | 1.9
C[C@@H]1CN([C@H](C)CO)C(=O)Cc2cc(NS(=O)(=O)c3cccs3)ccc2O[C@@H]1CN(C)Cc1ccc(C(F)(F)F)cc1 | -3.1
O=C(CC1CC1)N1CC2(C1)[C@H](c1ccccc1)[C@H](CO)N2CC1CCOCC1 | -4.9
COc1ccc(S(=O)(=O)N(C)C[C@@H]2Oc3ccc(NC(=O)Nc4ccc(C(F)(F)F)cc4)cc3CC(=O)N([C@@H](C)CO)C[C@H]2C)cc1 | -0.3
COc1ccc(NC(=O)Nc2cccc3c2O[C@H](CN(C)Cc2ccc(-c4ccccc4)cc2)[C@H](C)CN([C@@H](C)CO)C3=O)cc1 | 5.2

Among those listed so far, two contain a COOH group:
SMILES | MLL AF4-AF9 inh
CN1C(=O)c2cc(NS(=O)(=O)c3ccc(F)cc3)ccc2OC[C@@H]2O[C@H](CC(=O)O)CC[C@H]21 | -1.2
COc1ccc(NC(=O)Nc2ccc3c(c2)CC(=O)N([C@@H](C)CO)C[C@H](C)[C@@H](CN(C)Cc2ccc(C(=O)O)cc2)O3)cc1 | -2.0

4 structures from above, sorted by molecular weight, descending:
SMILES | MLL AF4-AF9 inh
COc1ccc(S(=O)(=O)N(C)C[C@@H]2Oc3ccc(NC(=O)Nc4ccc(C(F)(F)F)cc4)cc3CC(=O)N([C@@H](C)CO)C[C@H]2C)cc1 | -0.3
C[C@@H]1CN([C@H](C)CO)C(=O)Cc2cc(NS(=O)(=O)c3cccs3)ccc2O[C@@H]1CN(C)Cc1ccc(C(F)(F)F)cc1 | -3.1
C[C@@H]1CN([C@H](C)CO)C(=O)c2cccc(NC(=O)C3CC3)c2O[C@H]1CN(C)Cc1ccc(C(=O)Nc2ccccc2N)cc1 | 1.9
C[C@@H]1CN([C@@H](C)CO)C(=O)c2cc(NC(=O)Cn3cnnn3)ccc2O[C@@H]1CN(C)Cc1ccncc1 | -1.3

Not all compounds are listed, so the mix of outcomes need not match the whole.
